Assay outcomes as filed in PubChem BioAssay.
Yeast UUG start – modulators of yeast start codon fidelity, primary screen, whole organism, S. cerevisiae, single point, plate reader; S. cerevisiae UUG-firefly luciferase reporter, luminescence/redox ratio; activity score, % at 18.7 µM; actives 0.13% (n = 350,000); AID 602363, 2012;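 active = replicate mean at a twofold rise or more, about +100% in these data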;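 note: firefly luciferase made from a UUG start codon reports start codon fidelity; reporter light over untreated wells divided by growth signal over untreated wells; some hits fall short of that in this replicate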
Rce1 inhib – yeast Rce1p protease inhibitors, primary screen, biochemical, fluorescence, cell-free homogeneous; yeast membranes, quenched prenylated peptide cleavage fluorescence; actives 0.27% (n = 290,000); calls only;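 active = fall in fluorescence gain of 50% or more versus controls, with final raw signal at or below 3038400; inconclusive = same 50% fall but final raw signal above 3038400; inactive = fall in fluorescence gain under 50%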;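 note: plate controls were neutral control wells for no effect and wells lacking membranes for full effect; tested at 10 µM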
Env fusion inh – inhibitors of HIV-1 Env-driven cell-cell fusion, primary screen, HeLa-JRFL effector, CEM21 target cells, luciferase; inhibition, % at 12.3 µM; actives 1.1% (n = 360,000); AID 651610, 2012;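 active = mean replicate inhibition score of at least 50 and every replicate individually at or above 50; inconclusive = only one of the two criteria met; inactive = mean below 50 and not all replicates reaching 50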;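 note: 0% = plate neutral controls and 100% = maraviroc near 300 nM; one replicate is shown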
CSC inhib – cancer stem cell viability inhibitors, primary screen, luminescence | cancer stem cell-like cells viability | inhibition, % at 7.5 µM | actives 1.1% (n = 300,000);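 active = mean at 75% or more and at least half the replicates too; inconclusive = mean and replicates disagree; tested in HMLE shEcad cells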;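 note: 0% = median of negative and 100% = median of positive control wells; the first replicate is given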
PABP FP inh – PABP poly(A) RNA binding inhibitors, primary screen, biochemical, fluorescence polarization, uHTS | Polyadenylate-binding protein 1 (Homo sapiens), P11940 | inhibition, % at 35 µM | actives 1% (n = 290,000);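 active = 50% or more with normal probe brightness, or confirmed in later tests; inconclusive = above 50% with abnormal brightness, or retests that disagree; inactive = below 50% or failed in later tests; about a fifth of its hits are not listed in these tables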;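 note: calls also rest on retests at 20 µM and on dose response follow-up; controls were probe without protein and protein plus probe with vehicle; some compounds called inactive have numbers as strong as hits; many hits fall short of the cut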
Target sequence (P11940 whole entry, looked up): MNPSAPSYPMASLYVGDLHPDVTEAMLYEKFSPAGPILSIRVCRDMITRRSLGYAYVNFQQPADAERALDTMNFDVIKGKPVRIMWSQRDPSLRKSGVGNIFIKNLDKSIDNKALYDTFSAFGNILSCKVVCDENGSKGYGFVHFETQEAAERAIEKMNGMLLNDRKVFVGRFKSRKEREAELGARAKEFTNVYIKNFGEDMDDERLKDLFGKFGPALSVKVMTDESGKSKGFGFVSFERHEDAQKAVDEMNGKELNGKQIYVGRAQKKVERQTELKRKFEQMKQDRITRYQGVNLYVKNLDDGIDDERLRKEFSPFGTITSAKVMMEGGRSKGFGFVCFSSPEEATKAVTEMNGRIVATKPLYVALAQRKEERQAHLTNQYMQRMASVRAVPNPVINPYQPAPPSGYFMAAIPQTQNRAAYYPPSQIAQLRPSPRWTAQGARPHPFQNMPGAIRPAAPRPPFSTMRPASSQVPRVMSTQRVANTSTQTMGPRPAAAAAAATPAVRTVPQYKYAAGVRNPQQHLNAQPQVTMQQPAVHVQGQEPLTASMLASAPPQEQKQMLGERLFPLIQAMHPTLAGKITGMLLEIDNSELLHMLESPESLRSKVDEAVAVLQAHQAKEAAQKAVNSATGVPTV
eIF4H FP inh – human eIF4H binding inhibitors, primary screen, translation initiation inhibitor project, biochemical, uHTS, fluorescence polarization | inhibition, % at 35 µM | AID 2012, 2009 | Eukaryotic translation initiation factor 4H (Homo sapiens), Q15056 | actives 0.94% (n = 290,000) | eIF4H fluorescence polarization binding assay;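 active = 50% or more with normal probe brightness, or confirmed in later tests; inconclusive = above 50% with abnormal brightness, or retests that disagree; inactive = below 50% or failed in later tests; about a fifth of its hits are not listed in these tables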;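 note: calls also rest on retests at 20 µM and on dose response follow-up; 0% = protein and probe with vehicle and 100% = probe without protein; strong numbers were not always called active; many hits fall short of the cut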
MT1-MMP act inh – blockers of MT1-MMP proenzyme processing, primary screen, HT1080 RFP-PRO-GFP cells, GFP/RFP fluorescence; actives 0.061% (n = 360,000); GFP/RFP ratio change, % at 20 µM; Matrix metalloproteinase-14 (Homo sapiens), P50281; GFP/RFP ratio fluorescence, overnight; percent of plate control window, DMSO zero; AID 651647, 2012;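 active = GFP/RFP ratio change of at least 30% with cell ATP level not reduced by more than half and red fluorescence within 50% of control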; note: strong numbers were not always called active
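Assay system: RFP-PRO-GFP reporter HT1080 cells; read-out basis: GFP/RFP fluorescence ratio; benchmarks: DMSO wells and RFP-L50D-GFP cells; doses: 20 µM single dose, 1% DMSO; schedule: overnight cell settling, then overnight compound exposure, 37 °C, 5% CO2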
MT1-MMP act inh RFP – also measured in MT1-MMP act inh; calls as there; RFP signal change, %; measured here: RFP expression control read;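 0 = vehicle wells; hits needed this value within 50% of zero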
The depositor's hits bear a star; i = inactive; u = inconclusive; x = not tested or not shown; & = joins results of further samples. Compounds were not picked by outcome (roughly 2.9% active in at least one column).

SMILES	Yeast UUG start	Rce1 inhib	Env fusion inh	CSC inhib	PABP FP inh	eIF4H FP inh	MT1-MMP act inh	MT1-MMP act inh RFP
COc1cc2cc(C(c3nnnn3C(C)(C)C)N3CCC(C)CC3)c(=O)[nH]c2cc1OC (centres undefined)	-2	i	-8	-1	-1	-1	-1	-2
O=C(NCCc1ccccn1)/C(=C/c1ccco1)NC(=O)c1ccccc1	6	i	-5	-5	12	16	1	4
CCN(Cc1ccccc1)C(=O)c1cccc(S(=O)(=O)N2CCN(Cc3ccccc3)CC2)c1	-5	i	16	-11	x	x	-1	-6
Cc1ccc(S(=O)(=O)N(C)C)cc1NC(=O)CN1CCN(Cc2ccccc2)CC1	x	i	2	10	6	-5	-1	-2
CCCOc1ccccc1C(=O)N(Cc1ccco1)C1CCS(=O)(=O)C1 (centres undefined)	-14	i	x	-8	-9	-11	-1	-1
C/C(CC(=O)Nc1ccccn1)=N\NC(=O)c1ccncc1	x	i	x	-17	6	0	x	x
O=C(Nc1ccccc1)N1CCCN(Cc2c(F)cccc2Cl)CC1	-10	i	6	-5	5	-10	1	-2
CC1(C(=O)NS(=O)(=O)c2ccc(Cl)cc2)CCN1C(=O)c1cccc(F)c1 (centres undefined)	-4	x	i	x	x	x	-1	5
Cc1ccc2cc(NC(=O)c3ccccc3C)ccc2n1	-6	i	-28	x	9	-8	0	0
CCOC(=O)C1=C(C)NC(SCC(=O)OC)=C(C#N)C1c1ccc(C(=O)OC)cc1 (centres undefined)	7	i	-2	x	1	3	4&4	1&-1
COc1ccccc1C(=O)N1C(CC(=O)Nc2ccccc2C)C(=O)NC2CCCCC21 (centres undefined)	-4	i	12	-5	2	-10	3	5
CCOC(=O)/C(C#N)=c1/s/c(=C2\C=Cc3ccccc3N2CC)c(=O)n1CC	-26	i	x	-5	-8	-2	2	9
CCOC(=O)C1=CC[C@@H](c2cccc(C)c2)N(S(=O)(=O)c2ccc(C)cc2)[C@H]1C(=O)OCC	-22	x	11	20	x	x	-4	-8
Cc1ccc(NC(=O)CN(C)S(=O)(=O)c2cccs2)cc1F	-12	i	x	-4	-7	-4	8	-11
CC1(C(=O)Nc2ccc(Cl)c(C(F)(F)F)c2)Cc2c(-c3cccc(C(N)=O)c3)ccnc2O1 (centres undefined)	-2	x	37	x	x	x	3	-5
CC1Cc2cc(/C(O)=C3/C(=O)C(=O)N(CCCN4CCOCC4)C3c3ccc(C(C)C)cc3)ccc2O1 (centres undefined)	-7	i	-4	-21	7	1	2	1
CCOC(=O)C1(Cc2cccc(OC)c2)CCN(Cc2cccc3c2OCO3)CC1	-21	i	13	-6	-16	1	-3	-6
Cc1ccc2cccc(OCC(=O)Nc3cccc(S(=O)(=O)N4CCCC4)c3)c2n1	10	x	-1	-5	x	x	-1	-15
COc1cc(C(=O)NCCc2ncccc2C)ccc1OC1CCN(C(C)=O)CC1	-19	i	1	-8	1	-3	2	4
COCCCn1c2nc3ccccc3nc2c2c(=O)n(-c3ccccc3OC)c(C)nc21	x	i	x	1	-4	11	x	x
COc1ccc(N2C(=O)[C@@H]3C(c4cccnc4)=NO[C@@H]3C2=O)cc1	-3	i	1	-13	15	8	2	4
Cc1nc2c(c(-c3ccccc3)c1C#N)C(=O)c1ccccc1-2	-19	i	-31	-11	-3	-6	4	0
CCn1c(SCC(=O)OC)nc2sc3c(c2c1=O)CC(C)(C)OC3	-11	i	11	1	12	2	-2	-3
CCn1cc([N+](=O)[O-])c(C(=O)Nc2nc(-c3ccc(C)c(C)c3)c(C)s2)n1	x	i	x	45	-1	7	-9	-5
Cc1ccc2oc(=O)c3cnn(CC(=O)Nc4ccccc4N4CCN(C)CC4)c3c2c1	-10	i	19	-2	-4	-1	-2	1
Cc1cccc(C)c1NC(=O)CN(C)C(C)C(=O)Nc1ccccc1-c1ccccc1 (centres undefined)	-2	i	29	-7	1	-5	-2	0
Cc1cccc(NC(=O)c2cc(S(=O)(=O)N3CCC4(CC3)OCCO4)ccc2F)c1	17	i	-1	2	-4	-24	-4	-6
Cn1cc(C(=O)N/N=C/c2ccc3c(c2)OCO3)c2ccccc21	-9	i	-22	32	2	-1	0	-5
CC(C)(C)NC(=O)C(c1ccccc1F)N(Cc1ccco1)C(=O)c1csnn1 (centres undefined)	-2	i	15	x	-4	-3	-2	-2
Cc1ncc([N+](=O)[O-])n1CC(=O)Nc1ccc(F)c(Cl)c1	-13	i	6	-3	-8	-5	1	-1
Oc1[nH]c2ccccc2c1N=NC(=S)N1CCOCC1	-25	i	x	35	10	-1	17	-6
O=S(=O)(NNc1cccc(Cl)n1)c1ccc(Cl)cc1	-21	i	16	x	-7	-7	-1	0
CN(C)CCCOC(=O)Cc1ccc(Cl)cc1	9	x	x	-7	-7	1	4	3
C=CCn1c(SCC(=O)c2ccc(OC)cc2)nnc1-c1ccc2c(c1)OCO2	x	x	2	-9	5	8	-1	1
O=C(Nc1cccc(C(=O)O)c1)/C(=C\c1ccc2c(c1)OCO2)NC(=O)c1ccco1	x	i	-8	-6	0	-1	1	-1
O=C(Nc1ccc(Cl)cc1)Nc1ccc(Oc2cccnc2)nc1	x	i	12	10	-8	0	-1	-27
CC1CC(C)CN(S(=O)(=O)c2ccc3c(c2)CC(C)N3C(=O)C2CCC2)C1 (centres undefined)	-3	i	15	5	9	11	1	-7
N=c1n(Cc2ccccc2)c2ccccc2n1Cc1ccccc1	x	i	3	x	-4	2	-5	-12
O=C(NNc1ccccc1[N+](=O)[O-])Nc1ccc(F)cc1F	-9	i	3	-8	-1	7	-1	-3
COc1ccccc1N(CC(=O)NC1CCCC1)C(=O)CNC(=O)c1cccs1	-7	i	0	-21	14	22	5	9
COc1cccc(CN(C)C(=O)c2ccccc2SCC(=O)N2CCCC2)c1	1	i	-7	-10	x	x	-1	4
COc1ccc(-n2c(Cn3nc(C(F)(F)F)cc3C)n[nH]c2=S)cc1	x	i	7	0	27	1	2	1
CC(C)=C1C2CCC1C1C(=O)N(c3nccs3)C(=O)C21 (centres undefined)	-3	i	12	-7	1	10	0	4
CC(Oc1cccnc1[N+](=O)[O-])C(=O)Nc1ccc(F)cc1 (centres undefined)	-9	x	-3	2	x	x	3	0
CC(C)OC(=O)CSc1nnc(-c2cnccn2)n1-c1ccccc1	-14	i	x	x	2	10	-3	7
Cc1cc(Cl)ccc1OCCCC(=O)NCC1CCCO1 (centres undefined)	-12	i	-3	-15	-5	4	4	0
CC(=O)c1c(C(C)=O)c(C)n(-c2ccc(N)c(C)c2)c1C	-4	i	-2	-13	-5	-9	1	-1
CCc1ccc(/C=C2\Oc3c(ccc(O)c3CN3CCN(C)CC3)C2=O)cc1	x	i	11	-7	u	u	-11	-1
COc1ccc(S(=O)(=O)N2CCCCCC2)cc1C(=O)Nc1cccc(C)n1	-23	i	-171	7	-5	0	-9	-8
Cc1nc(NC(=O)/C=C/c2ccccc2)sc1C(=O)Nc1ccc(Cl)cc1	-9	i	-92	-11	-8	-11	8	-3
CC1(C(=O)NS(=O)(=O)c2cccc(Cl)c2)CCN1C(=O)C1(c2ccc(Cl)cc2)CC1 (centres undefined)	7	x	-4	x	x	x	2	0
CCOC(=O)CCc1c(C)c2ccc(OC3CCCCC3=O)cc2oc1=O (centres undefined)	-17	i	-2	4	12	-5	-2	-3
COC(=O)C1CCN(S(=O)(=O)CCNC(=O)c2ccc(F)cc2)CC1	-1	i	-9	x	x	x	3	4
CCC(=NC1CC(C)(C)NC(C)(C)C1)C1=C(O)CC(C)(C)CC1=O	-10	i	x	-9	7	-4	-4	-2
O=C(CSc1nc2ccccc2[nH]1)NCc1ccco1	-12	i	x	14	6	4	0	5
COc1cc(NC(=O)Cc2ccccc2)ccc1NC(=O)c1ccccc1	-3	i	-3	1	-9	-12	-1	0
CCCCN1CC(N2CCN(CCO)CC2)CS1(=O)=O (centres undefined)	-9	x	3	x	x	x	2	6
Cc1cc(C)nc(/N=C(\N)N2CCCCCC2)n1	-12	i	x	-1	18	8	-1	1
CC(C)Cc1ccc(S(=O)(=O)N2CCN(C(=O)c3ccco3)CC2)cc1	14	i	x	-3	-10	-8	4	-11
Cc1ccc(S(=O)(=O)N2CCN(C(=O)COC(=O)/C=C/c3ccc(OC(F)F)cc3)CC2)cc1	-21	x	-66	x	x	x	1	1
(cont.)
SMILES	Yeast UUG start	Rce1 inhib	Env fusion inh	CSC inhib	PABP FP inh	eIF4H FP inh	MT1-MMP act inh	MT1-MMP act inh RFP
CCC1=NN(C(=O)Cc2ccc([N+](=O)[O-])cc2)C(O)(C(C)(C)C)C1 (centres undefined)	x	i	0	0	23	9	0	-1
Cc1ccc(C2(C)NC(=O)N(CC(=O)NC3CCCCC3)C2=O)cc1 (centres undefined)	-4	x	-2	x	x	x	3	6
Cc1ccc(C(=O)NC2CCS(=O)(=O)C2)cc1S(=O)(=O)N1CCCCC1 (centres undefined)	-9	i	x	x	3	-1	5	-10
CCOc1ccc(CCNC(=O)c2cc(C)on2)cc1OCC	-6	i	10	-3	1	-9	2	-1
CC(O)CNc1nc2c(c(=O)n(Cc3cccc(Cl)c3)c(=O)n2C)n1C (centres undefined)	-2	i	10	-13	0	-13	-1	0
O=C1CC(N2CCN(c3ccccc3)CC2)C(=O)N1c1cccc(Cl)c1 (centres undefined)	-8	i	-5	20	8	0	3	2
CCOC(=O)C1=C(N)n2c(s/c(=C/c3ccccc3)c2=O)=C(C(=O)OCC)C1c1ccccc1 (centres undefined)	x	i	x	-9	-8	8	x	x
Cc1cc(C)n(C(=O)Cn2nc([N+](=O)[O-])cc2C)n1	x	i	-9	-4	-4	4	3	4
CCCNc1c(NS(=O)(=O)c2ccc(OC)c(OC)c2)c(=O)oc2ccccc12	-14	i	x	x	3	-6	1	2
OCCN1CCN(CC(O)COc2ccc(C34CC5CC(CC(C5)C3)C4)cc2)CC1 (centres undefined)	x	i	12	112*	7	1	-5	-4
CCCC(NC(=S)NCC1CCCO1)C12CC3CC(CC(C3)C1)C2 (centres undefined)	x	i	47	-14	0	0	-18	-18
C[C@H]1NS(=O)(=O)c2cc(Cl)ccc2O[C@@H]1c1ccccc1	-8	x	38	x	x	x	0	-7
CC1(C)CC(NC(=O)c2cccc3ccccc23)CC(C)(C)N1	-18	i	-114	-19	-4	-8	0	3
COP(=O)(OC)c1nc(-c2ccc([N+](=O)[O-])cc2)oc1N1CCCCC1	9	i	-62	-12	-4	2	-41	-3
